# T. gondii HeLa: Toxoplasma gondii ME49Luc growth in HeLa cells, luciferase, no IFN-y, primary screen (AID 1259421) | T. gondii ME49Luc in HeLa, luciferase, 72 h, no IFN-y; stronger effect = lower value; reference of the scale and settings of repeat entries not given here; many of its hits are not listed in these tables | activity change, negative = inhibition, % | 6,400 tested, 9.6% active;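 active = activity change below -70%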;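 note: about 20 µM from a 10 mM stock diluted 500-fold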
# * = called active by the depositor; & = joins results of further samples; ! = a repeat was not active. The list is partial (hit frequency here may not be typical).
Cn1ncc(Cl)c1-c1cc(C(=O)N[C@H](CN)Cc2ccc(F)c(F)c2)oc1Cl
  T. gondii HeLa = -80*
C[C@@H]1CN(Cc2ncccn2)C[C@H]1c1nc2c(cnn2C2CCOCC2)c(=O)[nH]1
  T. gondii HeLa = 4
CC(=O)[C@H]1CC[C@H]2[C@@H]3C[C@H](C)C4=CC(=O)CC[C@]4(C)[C@H]3[C@@H](O)C[C@]12C
  T. gondii HeLa = 5
CCC(CC)C(c1ccc(Nc2nc3ccccc3s2)cc1)n1cncn1 (stereo unspecified)
  T. gondii HeLa = 5
CCNC(=O)/C=C/c1cccc(Br)c1
  T. gondii HeLa = 53
N[C@@H]1CN(c2c(F)cc3c(=O)c(C(=O)O)cn([C@@H]4C[C@@H]4F)c3c2Cl)CC12CC2
  T. gondii HeLa = -6
O=c1cc[nH]c(=O)[nH]1
  T. gondii HeLa = 14
COc1cc(N)c(Cl)cc1C(=O)NC1CCN(CCCOc2ccc(F)cc2)CC1OC (stereo unspecified)
  T. gondii HeLa = 10&12
Cn1cc(-c2cnc3ccc4ccc(CS(=O)(=O)NCc5ccccn5)cc4c(=O)c3c2)cn1
  T. gondii HeLa = -4
O=C(O)CN1C(=O)c2cccc3cccc(c23)C1=O
  T. gondii HeLa = 1&4
CCO[C@H]1OC(=O)C[C@@H]1NC(=O)[C@@H]1CCCN1C(=O)[C@@H](NC(=O)c1ccc(N)c(Cl)c1)C(C)(C)C
  T. gondii HeLa = 3
C[C@@H](NC(=O)c1ncnc(N)c1Cl)c1ncc(C(=O)Nc2cc(C(F)(F)F)c(Cl)cn2)s1
  T. gondii HeLa = 11
Nc1cc(-c2ccncc2)c[nH]c1=O
  T. gondii HeLa = 3&4
CC(Oc1c(Cl)cccc1Cl)C1=NCCN1 (stereo unspecified)
  T. gondii HeLa = -2
Cc1ccc(Cl)cc1N(CC(=O)Nc1c(F)cccc1F)S(C)(=O)=O
  T. gondii HeLa = 12

# Overlap with the part before: 6 compounds, followed by the next part.
O=C(O)CN1C(=O)c2cccc3cccc(c23)C1=O
  T. gondii HeLa = 1&4
CCO[C@H]1OC(=O)C[C@@H]1NC(=O)[C@@H]1CCCN1C(=O)[C@@H](NC(=O)c1ccc(N)c(Cl)c1)C(C)(C)C
  T. gondii HeLa = 3
C[C@@H](NC(=O)c1ncnc(N)c1Cl)c1ncc(C(=O)Nc2cc(C(F)(F)F)c(Cl)cn2)s1
  T. gondii HeLa = 11
Nc1cc(-c2ccncc2)c[nH]c1=O
  T. gondii HeLa = 3&4
CC(Oc1c(Cl)cccc1Cl)C1=NCCN1 (stereo unspecified)
  T. gondii HeLa = -2
Cc1ccc(Cl)cc1N(CC(=O)Nc1c(F)cccc1F)S(C)(=O)=O
  T. gondii HeLa = 12
N#Cc1c(Oc2ccc(F)c(NC(=O)Cc3cccc(C(F)(F)F)c3)c2)ccc2nc(NC(=O)C3CC3)sc12
  T. gondii HeLa = -66
CCCOc1ccccc1-c1nc2n[nH]nc2c(=O)[nH]1
  T. gondii HeLa = 24&15&30
CCOC(=O)[C@H](CCc1ccccc1)N[C@@H](C)C(=O)N(CC(=O)O)C1Cc2ccccc2C1
  T. gondii HeLa = 7
O=C(CCCl)NCCc1ccccc1
  T. gondii HeLa = 30
NS(=O)(=O)c1cc2c(cc1C(F)(F)F)NC(Cc1ccccc1)NS2(=O)=O (stereo unspecified)
  T. gondii HeLa = 13&6
COc1cc(Nc2c(C#N)cnc3cc(OCCCN4CCN(C)CC4)c(OC)cc23)c(Cl)cc1Cl
  T. gondii HeLa = -77*
CO/N=C(\C(=O)N[C@@H]1C(=O)N2C(C(=O)O)=C(C[n+]3ccn4ncccc43)CS[C@H]12)c1nsc(N)n1
  T. gondii HeLa = 12
Nc1nccs1
  T. gondii HeLa = 8
Cc1cc(-c2nc(-c3ccc(OC(F)(F)F)cc3)no2)nn1Cc1ccnc(N2CCN(C3CC3)CC2)c1
  T. gondii HeLa = -36
O=C(Nc1ccc(Cl)cc1)Nc1ccc(Cl)c(C(F)(F)F)c1
  T. gondii HeLa = -77*
CC(=O)Nc1nc(C)c(-c2ccc(Cl)c(S(=O)(=O)NCCO)c2)s1
  T. gondii HeLa = -79*
O=c1cc(-c2ccc(O)cc2)oc2cc(O)ccc12
  T. gondii HeLa = 22
CNC(=O)c1cccc2cc(Oc3ccnc4cc(OCC5(N)CC5)c(OC)cc34)ccc12
  T. gondii HeLa = -25
CC[C@H](NC(=O)c1c(O)c(-c2ccccc2)nc2ccccc12)c1ccccc1
  T. gondii HeLa = 10
COc1cc(OC)c2c(=O)[nH]c(-c3cc(C)c(OCCO)c(C)c3)nc2c1
  T. gondii HeLa = 38

# Next part; the last 4 above are carried over.
O=c1cc(-c2ccc(O)cc2)oc2cc(O)ccc12
  T. gondii HeLa = 22
CNC(=O)c1cccc2cc(Oc3ccnc4cc(OCC5(N)CC5)c(OC)cc34)ccc12
  T. gondii HeLa = -25
CC[C@H](NC(=O)c1c(O)c(-c2ccccc2)nc2ccccc12)c1ccccc1
  T. gondii HeLa = 10
COc1cc(OC)c2c(=O)[nH]c(-c3cc(C)c(OCCO)c(C)c3)nc2c1
  T. gondii HeLa = 38
O=C1c2ccc(Nc3ccc(F)cc3F)cc2CCc2ccc(OC[C@H](O)CO)cc21
  T. gondii HeLa = -65
CN1CCc2c(c3ccccc3n2Cc2ccc(C(=O)NO)cc2)C1
  T. gondii HeLa = -47
CC(C)n1cnc2c(NCCc3ccc(O)cc3)nc(-c3csc4ccccc34)nc21
  T. gondii HeLa = -43
COc1ccccc1OCC(O)COC(N)=O (stereo unspecified)
  T. gondii HeLa = 7
COc1cccc(CCc2ccccc2OCC(CN(C)C)OC(=O)CCC(=O)O)c1 (stereo unspecified)
  T. gondii HeLa = -42
COc1cc2c(Oc3ccc4[nH]c(C)cc4c3F)ncnc2cc1OCCCN1CCCC1
  T. gondii HeLa = -26
Nc1nc(CC(=O)Nc2ccc(CCNC[C@H](O)c3ccccc3)cc2)cs1
  T. gondii HeLa = 12
OC1(c2ccc(Cl)c(C(F)(F)F)c2)CCN(CCCC(c2ccc(F)cc2)c2ccc(F)cc2)CC1
  T. gondii HeLa = -92*!
CCn1c(=O)c(-c2ccn[nH]2)cc2c(C)nc(N)nc21
  T. gondii HeLa = -57
CC[C@H](CO)Nc1nc(Nc2cccc(-c3ccccn3)c2)c2ncn(C(C)C)c2n1
  T. gondii HeLa = -72*
Oc1cc(O)c2c(c1)O[C@H](c1ccc(O)c(O)c1)[C@H](O)[C@H]2c1c(O)cc(O)c2c1O[C@H](c1ccc(O)c(O)c1)[C@@H](O)C2
  T. gondii HeLa = -72*
CN1CCC(=C2c3ccccc3CCc3sccc32)CC1
  T. gondii HeLa = 8&15
CC(=O)NCCCCCC(=O)O
  T. gondii HeLa = 11
CC1=NN(c2ccccc2)C(=O)C1
  T. gondii HeLa = 4&16
CC1(C)OC(=O)C(OCC2CC2)=C1c1ccc(S(C)(=O)=O)cc1
  T. gondii HeLa = 11

CCOC(=O)[C@H](CCc1ccccc1)N[C@@H](C)C(=O)N1C(=O)N(C)C[C@@H]1C(=O)O
  T. gondii HeLa = 6
CC(C)Cn1cnc2c1c(=O)n(C)c(=O)n2C
  T. gondii HeLa = 13
Cc1nc(NC(=O)N2CCC[C@H]2C(N)=O)sc1-c1ccnc(C(C)(C)C(F)(F)F)c1
  T. gondii HeLa = -3
O=C(c1cc(Cc2n[nH]c(=O)c3ccccc23)ccc1F)N1CCN(C(=O)C2CC2)CC1
  T. gondii HeLa = 12
CC1(C)Oc2ccc(C#N)cc2C(N2CCCC2=O)C1O (stereo unspecified)
  T. gondii HeLa = 4
Cc1cn([C@@H]2C[C@@H](O)[C@H](CO)O2)c(=O)[nH]c1=O
  T. gondii HeLa = -3
COc1cc(N2CCC(N3CCN(C)CC3)CC2)ccc1Nc1ncnc(Nc2ccccc2S(=O)(=O)C(C)C)n1
  T. gondii HeLa = -35
CCN(CC)C(=O)Nc1ccc(OCC(O)CNC(C)(C)C)c(C(C)=O)c1 (stereo unspecified)
  T. gondii HeLa = -16
COc1cc2c(cc1-c1c(C)noc1C)ncc1[nH]c(=O)n([C@H](C)c3ccccn3)c12
  T. gondii HeLa = -92*

# Part of the list above in order of count of non-hydrogen atoms, high to low:
COc1cc(N2CCC(N3CCN(C)CC3)CC2)ccc1Nc1ncnc(Nc2ccccc2S(=O)(=O)C(C)C)n1
  T. gondii HeLa = -35
O=C(c1cc(Cc2n[nH]c(=O)c3ccccc23)ccc1F)N1CCN(C(=O)C2CC2)CC1
  T. gondii HeLa = 12
Cc1nc(NC(=O)N2CCC[C@H]2C(N)=O)sc1-c1ccnc(C(C)(C)C(F)(F)F)c1
  T. gondii HeLa = -3
CCOC(=O)[C@H](CCc1ccccc1)N[C@@H](C)C(=O)N1C(=O)N(C)C[C@@H]1C(=O)O
  T. gondii HeLa = 6
CCN(CC)C(=O)Nc1ccc(OCC(O)CNC(C)(C)C)c(C(C)=O)c1 (stereo unspecified)
  T. gondii HeLa = -16
Cc1cn([C@@H]2C[C@@H](O)[C@H](CO)O2)c(=O)[nH]c1=O
  T. gondii HeLa = -3
